Methyltransferases: Primary Screen for Target Class Profiling of Small Molecule Inhibitors of Methyltransferases; purified enzyme, MTase-Glo SAH luminescence; stronger effect = lower value; calls only at 40 µM; hit rate 3.9% among 25,000; active = -50% or lower on at least one of six enzymes; inconclusive = the cases between; inactive = as a rule above -30% on all six;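 further: enzymes were COMT GAMT GNMT HNMT NNMT and PNMT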
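Each enzyme was reacted with SAM and its substrate, with compounds tested once at 40 uM; SAH formed was read by MTase-Glo luminescence.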
Calls only; i = inactive; ? = inconclusive; + = active, no number. On the % scale 0 is the no-effect control and ±100 the full control effect. Only part of the results is shown, so the mix of outcomes need not match the whole.

SMILES | Methyltransferases
COc1ccc(OC)c2c1cc1n2CC(C)(C(=O)NC2CCCCC2)N(Cc2cccc(F)c2)C1=O (configuration not stated) | i
COc1cccc(CSc2nnc3n(CC(C)C)c(=O)c4ccc(C(=O)NC(C)C)cc4n23)c1 | i
C=CCn1c(=O)c2ccc(C(=O)NCC(C)C)cc2n2c(=O)[nH]nc12 | i
CC1(C(=O)NC2CCCCCCC2)Cn2c(cc3occc32)C(=O)N1Cc1ccccn1 (configuration not stated) | i
NC(=O)C1CCN(C(=O)[C@H]2C[C@@H](O)[C@H](O)[C@@H]3N=C(Nc4cccc(C(F)(F)F)c4)S[C@@H]32)CC1 | i
Cc1cc2[nH]c(=O)[nH]c2cc1S(=O)(=O)NC1CCCCC1 | i
C[C@@H]1O[C@@H](O[C@H]2[C@H](O)[C@@H](O)[C@H](OC3CCC4(C)C5CCC(C)(C(CO)OC6OC(CO)C(O)C(O)C6O)CC5=CCC4C3(C)C)O[C@@H]2CO)[C@H](O)[C@H](O)[C@H]1O (some centres not stated) | i
CCCc1nc(C(=O)N(C)Cc2cnn(-c3ccccc3C)c2)cs1 | i
O=C(NC1CCCN(c2cc(-c3ccc(F)cc3)[nH]n2)C1)c1cnccn1 (configuration not stated) | i
CC1(C(=O)NC2CCCCC2)Cn2c(cc3sccc32)C(=O)N1CCc1ccc(Cl)cc1 (configuration not stated) | i
COc1ccc(NC(=O)CCc2nnc3n(CCc4ccccc4)c(=O)c4ccccc4n23)cc1OC | i
CC(C)c1noc([C@@H]2C[C@H](NS(=O)(=O)c3ccccc3)CN2C)n1 | i
COc1ccc(NC(=O)N[C@H]2C[C@@H](c3nc(-c4ccncc4)no3)N(C)C2)cc1 | i
COc1ccc2c(c1)CCN=C2C[C@H]1CN(C(=O)c2ccc(F)cc2)CC[C@H]1CC(=O)O | i
COC(=O)c1ccccc1NC(=O)c1ncn2c1C(=O)N(C1CC1)C(C)(C(=O)NCc1ccc(F)cc1)C2 (configuration not stated) | i
CCCn1c(=O)c2cc(F)ccc2n2c(SCC(=O)N(C)c3ccccc3)nnc12 | i
COc1ccc(CCNC(=O)c2c(-c3ccccc3)cc(=O)n3c2CCC3)cc1OC | i
O=C(c1ccsc1)N1CCC2(CCC2N2CCOCC2)CC1 (configuration not stated) | i
CC1CCC(NC(=O)C2(C)Cn3c(cc4occc43)C(=O)N2CCc2ccccc2)CC1 (configuration not stated) | i
COCC(=O)N1CC(C(=O)NCc2ccncc2)C2(CCOCC2)C1 (configuration not stated) | i
C=C(C)C(=O)O[C@H]1CC2=CC(C/C(C)=C\[C@H]3OC(=O)C(=C)[C@H]13)OC2=O (some centres not stated) | i
COCCN1C(=O)C(CC(=O)O)=C2CCCCC21 (configuration not stated) | i
O=C(Nc1ccc(F)cc1)c1cc2cccnn2n1 | i
CCC(C)NC(=O)c1ccc2c(=O)n(CC(C)C)c3nn(CC(=O)NCc4ccccc4)c(=O)n3c2c1 (configuration not stated) | i
COCCCNC(=O)C1(C)Cn2nc(-c3ccccc3)cc2C(=O)N1c1cccc(C)c1C (configuration not stated) | i
NC(=O)C(=O)O | i
Cc1cc2c(cc3n2CC(C)(C(=O)NC2CCCCCCC2)N(Cc2ccc4c(c2)OCO4)C3=O)o1 (configuration not stated) | i
COCCN1CCCC1c1nc(C2CN(S(=O)(=O)c3cccc(OC)c3)C2)no1 (configuration not stated) | i
Cc1cc2c(cc1C1(c3ccc(C(=O)O)cn3)CC1)C(C)(C)CCC2(C)C | i
CNC(=O)c1cc(C2CC2)nc2onc(C3CCN([S+](=O)([O-])c4ccccc4)C3)c12 (configuration not stated) | i
CCC(C)NC(=O)c1ccc2c(=O)n(C(C)C)c3nn(CC(=O)NCc4ccc(C)cc4)c(=O)n3c2c1 (configuration not stated) | i
O=C(O)CC(CCc1ccccc1)OC1OC(CO)C(O)C(O)C1O (configuration not stated) | +
COc1ccc(-c2ccc3ncn(C4CC4)c(=O)c3n2)cn1 | i
Cc1nc(CN2CCN(c3cc(C4CC(O)C4)ncn3)CC2)cs1 (configuration not stated) | i
Cn1c(=O)n(C)c2cc(S(=O)(=O)NCCN3CCOCC3)ccc21 | i
CC1CCC(NC(=O)C2(C)Cn3c(cc4occc43)C(=O)N2CCN(C)C2CCCCC2)CC1 (configuration not stated) | i
NC1C=CC=C(C(=O)O)C1 (configuration not stated) | i
O=C(C1CCCC1)N1CC2(CCCN(Cc3ccccn3)C2)Cc2ccccc21 (configuration not stated) | i
CC(C)CCn1c(=O)c2ccccc2n2c(SCC(=O)NC(C)C)nnc12 | i
CCc1cc2c(cc3n2CC(C)(C(=O)NC2CCCCC2)N(Cc2cccc(Cl)c2)C3=O)s1 (configuration not stated) | i
COc1nccnc1NC1CCN(C(=O)c2cccc(C)c2)CC1 | i
O=C(CCc1nnc2n(Cc3ccc(Cl)cc3)c(=O)c3ccccc3n12)N1CC=C(c2ccccc2)CC1 | i
COC(=O)CNC(=O)c1nc(-c2ccccc2OC)c2cnccn12 | i
C#Cc1cccc(C(=O)N2CCC(Cc3ccc(Cl)cc3)(C(=O)OCC)CC2)c1 | i
C[C@H]1CN(C(=O)CCCc2ccccc2)C[C@@H]1c1nc(-c2ccccc2)no1 | i
COCCN(C)C[C@@H]1CN(C(=O)Cn2ncc3ccccc3c2=O)C[C@@H]1CO | i
N#Cc1cccc(CN[C@H]2[C@H](O)[C@H](O)C[C@@H]2c2cccnc2)c1 | i
CCCCOc1c(C(=O)c2c(F)cc(C)cc2F)cnc2n[nH]cc12 | i
Cc1ccccc1N1C(=O)c2cc3sccc3n2CC1(C)C(=O)NC1CCCCC1C (configuration not stated) | i
NC1CCCCN(c2c(F)cc3c(=O)c(C(=O)O)cn(C4CC4)c3c2Cl)C1 (configuration not stated) | i
c1ccc(-c2nnn3c2nc(N2CCc4ccccc4C2)c2ccccc23)cc1 | i
O=C(c1cccc(Br)c1)N1CCC(N2CCCC2)CC1 | ?
Cc1ccc(C)c(C(=O)Cn2nc3n(CCc4ccccc4)c(=O)c4ccccc4n3c2=O)c1 | i
CC1(C)CCC2(C(=O)OC3OCC(O)C(O)C3O)CCC3(C)C(=CCC4C5(C)CC(O)C(OC6OC(COC7OCC(O)C(O)C7O)C(O)C(O)C6O)C(C)(C)C5CCC43C)C2C1 (configuration not stated) | i
COc1cccc([S+](=O)([O-])N2CCC3(C2)N=C(c2cccnc2)C(=O)N3)c1 (configuration not stated) | +
CNC(C)C(=O)NC(C(=O)N1CCCC1C(=O)Nc1cccc2ncccc12)C(C)C (configuration not stated) | i
Cc1nc(CNc2ncnc3ccc(-c4ccc5c(c4)OCO5)cc23)cs1 | ?
COc1ccc(Nc2cc(C)c3cc(NC(=O)c4cc(OC)cc(OC)c4)ccc3n2)cc1 | ?
Fc1ccc(C(OCCCc2cnc[nH]2)c2ccc(F)cc2)cc1 | +
CC1(C)C(=O)C(C)(C)c2cc(C(=O)Nc3ccc(C(=O)O)cc3)ccc21 | i

Next section:
SMILES | Methyltransferases
Cc1ccc(NC(=O)N2CCn3cccc3C2C(C)C)cc1 (configuration not stated) | i
Cc1nc(C(=O)NC2CC(c3cc(N4CCC(O)C4)ncn3)C2)cs1 (configuration not stated) | i
O=c1c2ccccc2n2c(SCc3ccccc3)nnc2n1CCc1ccccc1 | i
CN1[C@@H](CC(=O)c2ccccc2)CCC[C@H]1C[C@H](O)c1ccccc1 | i
CCCCc1ncc(/C=C(\Cc2cccs2)C(=O)O)n1Cc1ccc(C(=O)O)cc1 | i
CC(=O)Nc1c2n(c3ccc(F)cc13)CC(C)(C(=O)NC1CCCC1)N(CCC(C)C)C2=O (configuration not stated) | i
COc1ccc(-c2n[nH]n3c2nc(=O)c2ccc(C(=O)NCCCc4ccccc4)cc23)cc1 | i
COc1ccc(CN2C(=O)c3ccc(-c4ccco4)n3CC2(C)C(=O)NC2CCCCC2)c(OC)c1OC (configuration not stated) | i
CC(C)OCCCNC(=O)CCc1nnc2n(CCc3ccccc3)c(=O)c3ccccc3n12 | i
CC(=O)SCC(CC(=O)c1ccc(C)cc1)C(=O)O (configuration not stated) | i
COC(=O)c1ccc2c(=O)[nH]c3c(C(=O)NCc4ccc5c(c4)OCO5)sc(=S)n3c2c1 | i
CC(C)CNC(=O)c1ccc2c(=O)n(CC(C)C)c3nn(CC(=O)NC(C)C)c(=O)n3c2c1 | i
CN1CCOc2c(C(=O)NCCc3cnc[nH]3)cc(-c3ccccc3F)cc21 | ?
O=c1c2ccccc2n2c(=O)n(Cc3ccc(F)cc3Cl)nc2n1CCc1ccccc1 | i
CC(CCc1ccc(O)cc1)NCCc1ccc(O)c(O)c1 (configuration not stated) | i
CC1(C)CCC(C)(C)c2cc3c(cc21)Sc1ccccc1N=C3c1ccc(C(=O)O)cc1 | i
C[C@@H]1N[C@H]2N(C1=O)c1ccccc1[C@@]2(O)C[C@@H]1C(=O)N[C@@H](C)c2nc3ccccc3c(=O)n21 | i
CCCn1c(=O)c2ccc(C(=O)NCC(C)C)cc2n2c(SCC(=O)c3ccccc3)nnc12 | i
CC(C)NC(=O)c1ccc2c(=O)n(Cc3ccccc3)c3nn(CC(=O)c4ccccc4)c(=O)n3c2c1 | i
CC(C)CCN1C(=O)c2ccc(-c3ccco3)n2CC1(C)C(=O)NC1CCCC1 (configuration not stated) | i

A run of entries from the list above:
SMILES | Methyltransferases
Cc1ccc(NC(=O)N2CCn3cccc3C2C(C)C)cc1 (configuration not stated) | i
Cc1nc(C(=O)NC2CC(c3cc(N4CCC(O)C4)ncn3)C2)cs1 (configuration not stated) | i

(further entries)
SMILES | Methyltransferases
OCC1CN(c2ccncn2)CC12CCN(Cc1cc(F)c(F)c(F)c1)CC2 (configuration not stated) | i
Fc1ccc(N2CCN(c3nc4ccccc4c4nc(-c5cccnc5)nn34)CC2)cc1 | ?
O=C(CC1CCCC1)N1CC[C@@H]2COCCN(Cc3ccccc3)[C@@H]2C1 | i
CCOC(=O)c1cc2n(n1)CC(C)(C(=O)NC1CCCC1)N(c1cccc(CC)c1)C2=O (configuration not stated) | i
Cc1ccc2c(c1)c1c(n2CCc2ccc(C)nc2)CCN(C)C1 | +
COc1cccc(-c2cccc(C(=O)N3C[C@H](CO)C[C@H](CN(C)C)C3)c2)c1 | +
COc1ccc(OC)c2c1cc1n2CC(C)(C(=O)NC2CCCC2)N(Cc2cccc(F)c2)C1=O (configuration not stated) | i
CCC(C)NC(=O)Cn1nc2n(C(C)C)c(=O)c3ccc(C(=O)NC4CCCCC4)cc3n2c1=O (configuration not stated) | i
Cc1ccc(C(=O)COC(=O)C(Cc2c[nH]c3ccccc23)NC(=O)c2ccc(C(C)(C)C)cc2)cc1 (configuration not stated) | i
CCOC(=O)c1cc2n(n1)CC(C)(C(=O)NCc1ccc(Cl)cc1)N(Cc1ccc(C)o1)C2=O (configuration not stated) | i
CCOCCCN1C(=O)c2cc3sccc3n2CC1(C)C(=O)NC1CCCCCC1 (configuration not stated) | i
COc1ccc(OC)c(-c2nnc3n(Cc4ccccc4)c(=O)c4ccccc4n23)c1 | i
CC(C)CCN1C(=O)c2cc3ccccc3n2CC1(C)C(=O)NCc1ccccc1 (configuration not stated) | i
Cc1cn2nc(C(=O)N3CCN(C(=O)c4ccco4)CC3)cc2c(N2CCCC2)n1 | i
CC1(C(=O)NC2CCCC2)Cn2c(nc3ccccc32)C(=O)N1Cc1ccccc1Cl (configuration not stated) | i
Cc1ccc2n1CCN(C(=O)NCCc1ccccc1)C2C(C)C (configuration not stated) | i
CCn1nc(C(=O)N2C[C@@H](CN3CCN(C)CC3)[C@@H](CO)C2)cc1C | i
COc1ccc2cc3n(c2c1)CC(C)(C(=O)NC1CCCC1)N(CCCc1ccccc1)C3=O (configuration not stated) | i
COCC(=O)NC[C@H]1OC[C@@H](NC(C)C)[C@@H]1O | i
CCCn1c(=O)c2ccc(C(=O)NC(C)C)cc2n2c(SCC(=O)Nc3cccc(F)c3)nnc12 | i
COc1ccc2cc3n(c2c1)CC(C)(C(=O)NC1CCCCC1)N(c1ccc2c(c1)OCCO2)C3=O (configuration not stated) | i
CCC(C)(C)C(=O)N1CCC(N2C(=O)CCC2C(=O)NC(C)C)CC1 (configuration not stated) | i
Brc1cccc(-c2nnn3c2nc(N2CCCCC2)c2ccccc23)c1 | i
Cc1ccc(CCCO)c(NCc2ccc3nc(NCCCN4CCOCC4)n(Cc4nc(C)ccc4O)c3c2)c1 | i
CN1CCN(CCCN2C(=O)c3ccc(-c4ccco4)n3CC2(C)C(=O)NC2CCCC2)CC1 (configuration not stated) | i
COc1cccc(-c2cn3c(n2)N(C(=O)Cc2cccs2)CCC3)c1 | ?

Filtered by structure: the compounds so far with a COOH group.
SMILES | Methyltransferases
COc1ccc2c(c1)CCN=C2C[C@H]1CN(C(=O)c2ccc(F)cc2)CC[C@H]1CC(=O)O | i
COCCN1C(=O)C(CC(=O)O)=C2CCCCC21 (configuration not stated) | i
NC(=O)C(=O)O | i
Cc1cc2c(cc1C1(c3ccc(C(=O)O)cn3)CC1)C(C)(C)CCC2(C)C | i
O=C(O)CC(CCc1ccccc1)OC1OC(CO)C(O)C(O)C1O (configuration not stated) | +
NC1C=CC=C(C(=O)O)C1 (configuration not stated) | i
NC1CCCCN(c2c(F)cc3c(=O)c(C(=O)O)cn(C4CC4)c3c2Cl)C1 (configuration not stated) | i
CC1(C)C(=O)C(C)(C)c2cc(C(=O)Nc3ccc(C(=O)O)cc3)ccc21 | i
CCCCc1ncc(/C=C(\Cc2cccs2)C(=O)O)n1Cc1ccc(C(=O)O)cc1 | i
CC(=O)SCC(CC(=O)c1ccc(C)cc1)C(=O)O (configuration not stated) | i
CC1(C)CCC(C)(C)c2cc3c(cc21)Sc1ccccc1N=C3c1ccc(C(=O)O)cc1 | i
